VDR inhibitor: vitamin D3 receptor (human) inhibition. VDR-SRC2-3 peptide fluorescence polarization, 2 h. Potency, µM, for inactives: max response, negative = inhibition, hits mostly inhibitors. hit rate 0.93% among 400,000. AID 504847; active = well fitted inhibition curve with a large enough effect; inconclusive = small, poorly fitted or top-dose-only effect, or another doubt; inactive = no such curve, though single readings can be large or run the other way; note: series mostly up to about 120 µM
Target sequence (P11473 whole entry, looked up): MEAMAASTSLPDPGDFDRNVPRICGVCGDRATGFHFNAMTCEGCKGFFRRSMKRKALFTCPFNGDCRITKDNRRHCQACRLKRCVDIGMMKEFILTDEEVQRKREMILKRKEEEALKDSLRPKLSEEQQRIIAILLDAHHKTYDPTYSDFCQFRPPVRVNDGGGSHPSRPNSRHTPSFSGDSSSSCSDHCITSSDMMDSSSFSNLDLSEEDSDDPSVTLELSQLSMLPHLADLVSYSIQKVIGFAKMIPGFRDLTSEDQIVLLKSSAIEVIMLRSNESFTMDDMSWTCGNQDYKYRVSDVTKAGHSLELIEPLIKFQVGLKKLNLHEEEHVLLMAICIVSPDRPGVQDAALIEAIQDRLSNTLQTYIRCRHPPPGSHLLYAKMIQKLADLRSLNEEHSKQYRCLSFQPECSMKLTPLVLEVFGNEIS
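Signal is fluorescence polarization, reporting how far test compounds block the interaction of VDR with the SRC2-3 coregulator peptide after a 2 h room-temperature incubation.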
* = called active by the depositor; ? = inconclusive; & = joins results of further samples; [ ] = remark or other dose. % is set by controls: 0 for no effect and ±100 for the full control effect; potency is the fitted concentration of half-maximal effect. The list is partial; count on the stated rates, not on these rows.

VDR inhibitor	SMILES
14%	COc1ccc(S(=O)(=O)NCC(c2ccc3c(c2)OCO3)N2CCN(c3ccccc3)CC2)cc1 (stereo not given)
-3%	COC(=O)c1sc2ccccc2c1NC(=O)c1cccs1
-20%	O=C(NC1CCSc2ccccc21)c1cc([N+](=O)[O-])ccc1N1CCOCC1 (stereo not given)
4%	COc1ccc(CNC(=O)c2cc3c(s2)-c2ccccc2OC3)cc1
1%	O=C(COC(=O)CNC(=O)c1ccco1)NCCN1C(=O)CSC1=O
11%	Cc1cccc(NC(=O)CSc2nnc(-c3n[nH]c4ccccc34)o2)c1
38%[activator]	Cc1ccnc(NS(=O)(=O)c2ccc(NC(=O)C3CCCNC3=O)cc2)n1 (stereo not given)
12%	COC(=O)c1noc(-c2ccc(OC)cc2)n1
8%	Cc1cc(N2CCN(C)CC2)nc2ccc(NC(=S)N3CCN(c4ccc(F)cc4)CC3)cc12
-8%	Cc1ccc2nc(COc3ccccc3NC(=O)C(C)(C)C)cc(=O)n2c1
-14%	COc1cccc(-c2nc(-c3ccc(C(=O)O)cc3)no2)c1
-16%	O=C1CC(NCC2CCCO2)C(=O)N1c1ccc(Cl)cc1 (stereo not given)
-1%	COc1ccc(S(=O)(=O)N2CCN(C(=S)NCCc3ccccc3)CC2)cc1
-13%	CC1=CC(C)(C)N(S(=O)(=O)c2ccc(C)cc2)c2ccc(C)cc21
2%	Cc1ccc(S(=O)(=O)Nc2cccc(NC(=O)CN3CCCCC3)c2)cc1
10%	COc1cc(C(=O)NCCOc2ccc(F)cc2)c(Br)c(OC)c1OC
?	CCOC(=O)C1=C(C)N=c2s/c(=C/c3ccc(OCC(=O)O)c(OC)c3)c(=O)n2C1c1ccc(Cl)cc1 (stereo not given)
-8%	Cc1cc2c(cc1S(=O)(=O)N1CCN(c3ccccc3F)CC1)OCC(=O)N2
-5%	COc1cc(C)ccc1OCc1cc(C(=O)NCCN2CCCC(O)C2)no1 (stereo not given)
-20%	CCOC(=O)c1c(NC(=O)/C=C/c2ccc(C)o2)sc(C)c1C
-23%	O=[N+]([O-])c1ccc2nc(NS(=O)(=O)c3ccc(Cl)cc3)sc2c1
-1%	Cc1ccccc1OCC(O)CN(Cc1ccccc1O)C1CCCCC1 (stereo not given)
-10%	Cc1ccccc1OCc1nc2ccccc2[nH]1
-7%	COc1ccccc1C(=O)Nc1ccnn1C1CCN(C(C)CSC)CC1 (stereo not given)
-10%	Cc1cccc(NC(=O)c2ccccc2NC(=O)CCC(=O)O)c1
-2%	CC(C)=CCOc1ccc2ccc(=O)oc2c1
-14%	O=C(NCc1ccc(Cl)cc1)c1cc(-c2ccco2)on1
9%	Cc1cc(=O)oc2c(C)c(OC(C)C(=O)NCC(O)c3ccccc3)ccc12 (stereo not given)
-9%	Cc1c(NC(=O)C(C)OC(=O)c2ccc([N+](=O)[O-])s2)c(=O)n(-c2ccccc2)n1C (stereo not given)
-7%	CCCN1C(=O)SC(CC(=O)Nc2ccccc2)C1=O (stereo not given)
22µM*	CC(=O)c1ccc(NC(=O)CSc2nnc(-c3ccco3)c(-c3ccco3)n2)cc1
-2%	CC(C)(CC(=O)N1CCN(c2ccc(Cl)cc2)CC1)CC1=NS(=O)(=O)c2ccccc2N1
13µM*	CCOC(=O)COc1ccc(/C=C/[N+](=O)[O-])c(OCC(=O)OCC)c1
13%	Cc1cccc(NC(=O)CN(CCc2ccccc2)S(C)(=O)=O)c1
-2%	O=C(NCc1ccccn1)C1C2C=CC(C2)C1C(=O)Nc1ccc(F)cc1 (stereo not given)
17%	O=C(Nc1ccccc1Cl)c1ccc2nccnc2c1
14%	CCOC(=O)COc1cnc2ccccc2n1
-5%	Cc1nc(CS(=O)(=O)c2ccccc2)cc(Sc2ccc(Cl)cc2)n1
?	Cc1nnc(SCc2ccc([N+](=O)[O-])cc2)o1
-20%	C=CCn1c(/N=C/c2ccc(N(C)C)cc2)nc2ccccc21
4%	O=C(O)c1cccc(NC(=O)C2C3C=CC(C3)C2C(=O)O)c1 (stereo not given)
26%	O=C(N1CCN(Cc2ccccc2)CC1)C12CC3CC(CC(C3)C1)C2
-7%	Cc1cc(C)n(-c2ccc(Cl)c(C(=O)Nc3ccc(OC(F)(F)F)cc3)n2)n1
9%	CCC(=O)NC(=S)Nc1cccc(NC(=O)c2ccc(Cl)cc2Cl)c1
4%	COC(=O)C(c1ccccc1)C(C(=O)OC)c1ccccc1 (stereo not given)
-10%	Cc1onc(-c2c(Cl)cccc2Cl)c1C(=O)N1CCN(c2ncccn2)CC1
-4%	CCOC(=O)COc1c(/C=N\OC)cc(Cl)cc1OC
18%	Cn1c(SCc2ccc([N+](=O)[O-])cc2)nnc1-c1cccnc1
9%	Cc1ccc(C)c(N(Cc2ccccc2F)S(C)(=O)=O)c1
-11%	CS(=O)(=O)N1CCC(C(=O)NCc2ccc(Cl)cc2Cl)CC1

(next part)
VDR inhibitor	SMILES
15%	Nc1nnc(SCc2ccc(F)cc2)n1-c1ccccc1
0%	COc1ccc(-c2cn3c(n2)sc2cc(C(=O)Nc4ccc(F)cc4Cl)ccc23)cc1
0%	CCN(c1ccccc1C)S(=O)(=O)c1nnc(NC(=O)c2ccccc2C)s1
-5%	O=C(c1ccccc1)N1CCN(Cc2ccccc2)CC1
-1%	CCOc1ccccc1NC(=O)Nc1cc2c(cc1N1CCCCC1)n(CC)c(=O)n2CC
11%	Cc1ccc(OCC(=O)Nc2ccc(C(=O)OCc3cc(=O)n4ccsc4n3)cc2)cc1C
-10%	Cc1ccc(-n2c(C)c(C)c3c(N)ncnc32)cc1
-3%	CCC(=O)c1ccc(N2CCN(C(=O)c3ccccc3)CC2)c(F)c1
-7%	CN(C)S(=O)(=O)c1ccc(S(=O)(=O)N2CCCC(C(=O)NC3CC3)C2)cc1 (stereo not given)
-18%	N#Cc1cccc(NC(=O)COC(=O)Cn2nc(-c3ccccc3)oc2=O)c1
-2%	O=C(c1oc2ccccc2c1N1CCCCC1)N1CCCCC1
9%	O=C(C1CCCO1)N(Cc1ccccc1)c1ccccc1 (stereo not given)
-7%	CCc1ccc(N2CC(C(=O)Nc3ccc(S(=O)(=O)NCC4CCCO4)cc3)CC2=O)cc1 (stereo not given)
5%	COCCCNC(=O)c1ccc(C)c(-n2c(C)nc3cccnc32)c1
4%	CCNC(=O)C(Sc1ccccc1)c1ccccc1 (stereo not given)
-5%	COC(=O)CSc1nc(N)c(C#N)c(CC(C)C)c1C#N
-1%	CCOC(=O)Cn1nnc(-c2ccccc2)n1
9%	CCN(CC(=O)Nc1c(F)cccc1F)C(=O)CCN1C(=O)c2cccc([N+](=O)[O-])c2C1=O
-20%	CCCCN(C/C=C/c1ccccc1OC)Cc1ccccc1
5%	CCCn1c(N)c(C(=O)CSc2nnc(-c3ccoc3C)n2C)c(=O)n(C)c1=O
-23%	COc1ccc(COC(=O)N/C=C/c2ccco2)cc1
15%	CCOC(=O)CN(C(=O)CSc1nnc(-c2cccc(OC)c2)o1)c1ccc(F)cc1
-4%	Cc1ccc(SCC(=O)Nc2ccc(S(=O)(=O)Nc3ncccn3)cc2)cc1
-8%	Cc1cccc(NC2=NC(=S)N(c3ccc(C(=O)O)cc3)C23CCCCC3)c1
-3%&-2%	Cc1cccc(CNc2ncnc3ccc(-c4cccnc4)cc23)c1

The final 7 records of the section above open the next one:
VDR inhibitor	SMILES
-20%	CCCCN(C/C=C/c1ccccc1OC)Cc1ccccc1
5%	CCCn1c(N)c(C(=O)CSc2nnc(-c3ccoc3C)n2C)c(=O)n(C)c1=O
-23%	COc1ccc(COC(=O)N/C=C/c2ccco2)cc1
15%	CCOC(=O)CN(C(=O)CSc1nnc(-c2cccc(OC)c2)o1)c1ccc(F)cc1
-4%	Cc1ccc(SCC(=O)Nc2ccc(S(=O)(=O)Nc3ncccn3)cc2)cc1
-8%	Cc1cccc(NC2=NC(=S)N(c3ccc(C(=O)O)cc3)C23CCCCC3)c1
-3%&-2%	Cc1cccc(CNc2ncnc3ccc(-c4cccnc4)cc23)c1
-19%	CCn1c2ccccc2c2cc(CN3CCN(Cc4ccccc4Cl)CC3)ccc21
-9%	CCCCN1C(=S)NC[C@@H]1c1ccccc1
-15%	CC(C)CN(CC(C)C)S(=O)(=O)N1CCC(C(=O)NCCc2ccc(Cl)cc2)CC1
-3%	Cc1cc(C)n(Cc2nc3ccccc3n2C)n1
2%	Cc1ccc(NC(=O)CSc2nc(NS(=O)(=O)c3ccc(C)cc3)cc(=O)[nH]2)cc1
4%	CSc1ccc(-c2nnn(CC(=O)NCc3ccccc3)n2)cc1
3%	CC1Cc2cc(/C(O)=C3/C(=O)C(=O)N(CCCn4ccnc4)C3c3cccnc3)ccc2O1 (stereo not given)
-1%	COc1c(C)cc(C(=O)C2CCCN(C(=O)c3cccc(-n4cccn4)c3)C2)cc1C (stereo not given)
-14%	Cc1ccc(C(=O)c2c3ccc(C(F)(F)F)cc3[n+]([O-])n2CCCC(N)=O)cc1
-1%	Cc1ccc(S(=O)(=O)N(C)CCCC(=O)N2CCN(C=O)CC2)cc1
-19%	CN(CC(=O)NCC(=O)Nc1ccc(F)cc1)C1CCS(=O)(=O)C1 (stereo not given)
-14%	CC(C)CNc1cc(Cl)c(S(=O)(=O)NCC(C)C)cc1C(=O)O
-7%	Cc1cc(Cl)c(S(=O)(=O)NCc2ccncc2)cc1OCC(N)=O
22%	CCCCCn1c(=O)[nH]c2cc(C(=O)NCc3ccccn3)ccc2c1=O
-2%	O=C(O)CSc1nnc(-c2cccnc2)n1Cc1ccccc1
7%	COC(=O)c1ccccc1Oc1cc(C(F)(F)F)nc(-c2ccccn2)n1
-5%	COCc1nnc(NS(=O)(=O)c2c(C)cc(C)cc2C)s1
-5%	CC(CCc1ccccc1)NC(=O)c1ccc(Br)o1 (stereo not given)
?	COc1ccccc1C(=O)Nc1ccccc1SC(=O)c1ccccc1OC
8%	COc1ccc(NC(C)=O)cc1NC(=O)c1ccc2ccccc2c1
-30%	Cc1cccc(N2CCN(C(=S)Nc3ccc4nc(N5CCN(C)CC5)cc(C)c4c3)CC2)c1C
-24%	COc1cccc(C(=O)NCCS(=O)(=O)NCCc2ccc(OC)c(OC)c2)c1
-1%	O=C(CCc1ccccc1)NCc1ccc2c(c1)CCN2C(=O)c1ccccc1
-14%	CSc1ncc(C(=O)Nc2ccc(C)cc2C)c(C)n1
5%	CCC(OC(=O)C1=Cc2ccccc2OC1)C(=O)NC1CCCC1 (stereo not given)
0%	Cc1cc(NC(=O)Nc2ccc(C)c(C)c2)no1
10%	CSCCC(NS(=O)(=O)c1ccc2c(c1)oc(=O)n2C)C(=O)NC1CCCc2ccccc21 (stereo not given)
13%	CCOC(=O)c1oc2ccccc2c1CN1CCOCC1
5%	CCN(CC)S(=O)(=O)c1ccc(NC(=S)NC(=O)C(C)C)cc1
2%	O=C(CCS(=O)(=O)c1ccc(Cl)cc1)N1CCN(c2ccccc2F)CC1
12%	CCC(C(=O)NCCCN1CCN(CC)CC1)n1nc(C)n2c(cc3occc32)c1=O (stereo not given)
0%	CN(C(=O)c1cnc2n(c1=O)CCS2)C1CCCCC1
-14%	CCc1[nH]c(=O)[nH]c1C(C)S(=O)(=O)c1ccc(C)cc1 (stereo not given)
0%	c1ccc(-c2ccc(C3=Nn4c(nnc4-c4cc(-c5ccccc5)n[nH]4)SC3)cc2)cc1
4%	CCCN1Cc2cccc(C(=O)NC(C)c3cccs3)c2C1=O (stereo not given)
-23%	C[C@H]1CN=C(N(C)C)N1CC1CCCC1
-8%	Cc1nc(SCc2nc3ccc(C(F)(F)F)cc3[nH]2)c2oc3ccccc3c2n1
?	CCCCNC(=O)c1ccccc1C(=O)NCCCC
10%	COCCCn1cnc2oc3nc4ccccc4nc3c2c1=O
-2%	CON/C=C(\C=Nc1ccccc1)c1ncc(C(F)(F)F)cc1Cl
4%&23%	CCc1nn(CC(=O)NCCCN2CCN(CC)CC2)c(=O)c2cc3occc3n12
9%	COc1cc(OC)c(NC(=O)N2CCN3CCCCC3C2)cc1Cl (stereo not given)
-16%	CSc1nc(-c2ccccc2)c2cc(Cl)ccc2n1
10%	CCOC(=O)N1CCC(NCc2c(C(=O)N(C)Cc3ccccc3)nc3ccccn23)CC1
20%	O=C(Cn1[nH]c(=O)c2ccccc2c1=O)N1CCN(S(=O)(=O)c2ccc(Cl)cc2)CC1
-17%	Cc1sc(NCc2ccccc2)nc1-c1ccccc1
-11%	Cc1cc2nc(C)n(CCCN)c2cc1C

Among those listed so far, these have bromine:
VDR inhibitor	SMILES
10%	COc1cc(C(=O)NCCOc2ccc(F)cc2)c(Br)c(OC)c1OC
-5%	CC(CCc1ccccc1)NC(=O)c1ccc(Br)o1 (stereo not given)

Ordered by value in VDR inhibitor (high to low): some entries from above
VDR inhibitor	SMILES
4%	CCCN1Cc2cccc(C(=O)NC(C)c3cccs3)c2C1=O (stereo not given)
2%	O=C(CCS(=O)(=O)c1ccc(Cl)cc1)N1CCN(c2ccccc2F)CC1
0%	Cc1cc(NC(=O)Nc2ccc(C)c(C)c2)no1
-11%	Cc1cc2nc(C)n(CCCN)c2cc1C
-23%	C[C@H]1CN=C(N(C)C)N1CC1CCCC1

Assay outcomes: PubChem, National Center for Advancing Translational Sciences (NCATS)
